# Screening results deposited in PubChem by National Center for Advancing Translational Sciences (NCATS).
# ClpP mod: qHTS Assay for Activators of ClpP. ATP-dependent Clp protease proteolytic subunit (Bacillus subtilis (strain 168)), P80244. purified B. subtilis ClpP, FRET peptide cleavage, 20 min. Potency, µM (titrated, usually from 57.5 µM), for the others: at the top dose activity change, negative = active. 340,000 compounds, 1.9% hits; active = well fitted falling curve with a large enough effect; inconclusive = small, poorly fitted or top-dose-only effect; inactive = no such curve, though single readings can be large or run the other way; also: potency is read from the fitted curve at half-maximal effect; the source files actives as falling curves though it sought activators and does not explain the sign; nearly all actives have a fitted effect of over 65% in size; many hits overshoot -100%
# Target sequence (P80244 whole entry, looked up): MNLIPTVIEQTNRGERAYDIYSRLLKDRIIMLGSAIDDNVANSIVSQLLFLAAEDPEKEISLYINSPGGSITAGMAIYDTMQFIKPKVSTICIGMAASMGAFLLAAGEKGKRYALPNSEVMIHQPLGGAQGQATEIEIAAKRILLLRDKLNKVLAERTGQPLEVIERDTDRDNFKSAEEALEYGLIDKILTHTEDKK
#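 FRET quenching reversal measured ClpP activation: 10 microg/mL B. subtilis ClpP at pH 8 with the FRET-FV decapeptide, read at 430 nm after 320 nm excitation. The 20-min minus 0-min signal was scaled between DMSO/no-enzyme wells and ADEP (5.8 microM final).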
# gsp ag: agonists of gsp mutant (McCune-Albright syndrome) | 340,000 compounds, 0.13% hits | Potency, µM (series often up to 76.9 µM), without a hit: at the top dose activation (cAMP increase), hits mostly activators | gsp mutant cells, cAMP HTRF, 30 min; control for the full effect not named in the record; active = well fitted activation curve with a large enough effect; inconclusive = small, poorly fitted or top-dose-only effect, or another doubt; inactive = no such curve, though single readings can be large or run the other way; cell line not stated here;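 also: phosphodiesterase inhibitor Ro 20-1724 added with compounds to block cAMP breakdown; potency is read from the fitted curve at half-maximal effect; nearly all actives have a fitted effect of over 60% in size; about a fifth of the inactives were tested at one dose only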
#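 Cells stably selected in G418 were plated at 2000/well, grown 16-24 hr, then given compounds in DMSO with the PDE inhibitor […] (300 uM solution added) for 30 min at 37C; cAMP was read by HTRF.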
# Menin MLL FP FL: inhibitors of human menin-MLL interaction, wild-type MLL peptide; Fluorescence polarization, fluorescein-MLL peptide displacement from menin; FP activity change, % at 61.4 µM; AID 1766; 290,000 tested, under 10 active; inconclusive = falling polarisation curve, or a change in total fluorescence; inactive = total fluorescence flat and polarisation flat or rising; no compound was filed as active; the % refers to the polarisation; negative = inhibition;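 also: % of control where 0% means no effect; inhibitors lower the polarisation; unlabelled MLL peptide was the positive control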
# TRPV1 potentiator: potentiators of human vanilloid receptor 1 (TRPV1); Q8NER1; potentiation, % at 8.33 µM; 320,000 compounds, 0.02% hits; TRPV1-expressing cells, Fluo-8 calcium influx, capsaicin EC20 potentiation; host cell line not named in the record; control for the full effect not named in the record; active means potentiation above 80%; inconclusive means 30% to 80%; inactive means below 30%; also: 0% is about no effect
# Target sequence (Q8NER1 whole entry, looked up): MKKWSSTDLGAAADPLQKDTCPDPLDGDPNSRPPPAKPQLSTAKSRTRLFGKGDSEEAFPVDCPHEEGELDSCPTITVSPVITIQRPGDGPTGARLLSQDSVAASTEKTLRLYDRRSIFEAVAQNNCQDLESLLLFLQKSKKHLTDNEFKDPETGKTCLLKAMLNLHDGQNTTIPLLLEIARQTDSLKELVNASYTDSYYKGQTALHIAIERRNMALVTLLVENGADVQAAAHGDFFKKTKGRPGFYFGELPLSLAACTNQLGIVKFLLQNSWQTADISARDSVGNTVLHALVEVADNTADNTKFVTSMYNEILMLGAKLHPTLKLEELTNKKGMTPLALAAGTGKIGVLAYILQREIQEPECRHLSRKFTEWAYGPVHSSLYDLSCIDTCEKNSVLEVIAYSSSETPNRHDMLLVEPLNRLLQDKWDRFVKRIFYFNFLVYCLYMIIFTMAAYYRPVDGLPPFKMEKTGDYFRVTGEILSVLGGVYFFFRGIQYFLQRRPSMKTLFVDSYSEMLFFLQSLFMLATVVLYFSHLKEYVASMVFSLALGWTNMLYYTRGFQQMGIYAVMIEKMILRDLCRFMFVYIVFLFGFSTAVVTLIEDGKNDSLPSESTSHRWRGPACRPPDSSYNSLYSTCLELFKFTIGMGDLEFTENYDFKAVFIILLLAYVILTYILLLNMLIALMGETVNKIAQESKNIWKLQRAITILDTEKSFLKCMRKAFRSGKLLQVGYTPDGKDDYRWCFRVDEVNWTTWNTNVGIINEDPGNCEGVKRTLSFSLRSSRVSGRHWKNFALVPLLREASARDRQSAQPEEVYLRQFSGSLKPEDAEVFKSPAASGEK
#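 Fluo-8 calcium influx in TRPV1-expressing cells, kinetic read (ex 480/em 520 nm). Compound added and read 3 min for agonist activity, followed by capsaicin at EC20 final and 2 min further read for enhancement.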
# CtBP-E1A blk: inhibitors of CtBP/E1A interaction; AlphaScreen GST-E1A/His-CtBP binding, 1536-well; active compounds read low; control for the full effect not named in the record; activity change, % (concentration not given with the values); 340,000 compounds, 0.49% hits; AID 651724; in the data active means activity change below about -65%; inconclusive means about -30% to -65%; inactive means above about -30%; also: % is scaled to controls: 0 for no effect and ±100 for the full control effect
#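 Protein mix (5X: 125 nM each GST-E1A, His-CtBP) was incubated with pinned compound 2 h at 37 deg C in dark, in 50 mM Tris pH 8.0 buffer with 300 mM NaCl. Glutathione donor and nickel acceptor beads followed; AlphaScreen signal read after 1 h.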
# Sfp PPTase inh: inhibitors of Bacillus subtilis Sfp phosphopantetheinyl transferase. Biochemical Sfp PPTase activity, qHTS. Potency, µM, for inactives: max response, negative = inhibition, actives largely listed as inhibitors. 310,000 compounds, 3.5% hits. AID 1490; active = well fitted inhibition curve with a large enough effect; inconclusive = small, poorly fitted or top-dose-only effect, or another doubt; inactive = no such curve, though single readings can be large or run the other way;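 also: the enzyme is Sfp with the accession as filed and its product quenches rhodamine fluorescence; potency is read from the fitted curve at half-maximal effect; 0% = enzyme reaction without inhibitor and -100% = no enzyme wells; top concentration of the series not given in the record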
#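 After 15 min at room temperature with compound, 15 nM Sfp received 5 uM rhodamine-CoA plus 12.5 uM BHQ-2-ybbR (50 mM Hepes pH 7.6, 10 mM MgCl2). Rate came from the fluorescence difference over 30 min, ex 525/em 598 nm.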
# gsp antag: antagonists of gsp mutant (McCune-Albright syndrome) | gsp-mutant cells, cAMP HTRF, 30 min; control for the full effect not named in the record | Potency, µM (top dose mostly 76.9 µM), for inactives: at the top dose activity change, negative = inhibition, hits mostly inhibitors | 340,000 compounds, 0.4% hits | AID 624288; active = falling curve of any shape with a large fitted effect; inconclusive = falling curve, mostly with a smaller effect; inactive = flat or rising curve; cell line not stated here;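 also: intracellular cAMP measured with PDE inhibitor Ro 20-1724 present during compound exposure; potency is read from the fitted curve at half-maximal effect; % is scaled to controls: 0 for no effect and ±100 for the full control effect; nearly all actives have a fitted effect of over 65% in size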
#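 HTRF cAMP measurement after 30 min RT detection following 30 min, 37C compound treatment alongside […] (added as 300 uM solution) in G418-selected cells seeded at 2000/well and grown 16–24 h.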
# The depositor's hits bear a star; ? = inconclusive; . = no result given; [ ] = another dose, or the depositor's remark.
Structure	ClpP mod	gsp ag	Menin MLL FP FL	TRPV1 potentiator	CtBP-E1A blk	Sfp PPTase inh	gsp antag
CCOC(=O)c1sc2nc(C)n(CC(=O)NCC3CCCO3)c(=O)c2c1C (stereo not given)	-3.6%	?	1.8	0	11	18%	6%
CC(C(=O)Nc1ccc(O)cc1)c1cccc(C(=O)c2ccccc2)c1 (stereo not given)	.	-1%[15.4 µM]	1.9	-4	.	11%	-11%
CCCC(=O)Oc1ccccc1C1SCc2cc(C)c(C)cc2CS1	0.4%	-5%[15.4 µM]	1.6	6	3	4%	-1%
O=C(NNc1ccccc1)Nc1cc(Cl)ccc1Cl	-23%	-2%[15.4 µM]	.	.	-4	.	2%
Cc1ccccc1OCC(=O)Nc1cccc(S(=O)(=O)NC2=NCCCCC2)c1	0.5%	?	.	13	2	.	-5%
COc1ccc(-c2nnc(NC(=O)c3ccc(F)cc3)o2)cc1	1.0%	-13%	-0.1	-28	-1	23%	-1%
COc1ccccc1NC(=S)N1CCN(Cc2ccc3c(c2)OCO3)CC1	-0.4%	-1%	1.2	12	-2	7%	7%
CCOc1ccc(N2C(=O)CC(NC3CCN(C(=O)c4ccc(F)cc4)CC3)C2=O)cc1 (stereo not given)	2.3%	-23%	-3.9	0	-1	2%	-17%
Cc1ccc(C(=O)Cc2nc3ccccc3[nH]2)cc1	.	2%[15.4 µM]	1.5	-4	16	18%	0%
COc1ccc(N2C(=S)NC(C)(C)CC2(C)c2ccc(OC(C)=O)cc2OC(C)=O)cc1 (stereo not given)	.	-6%[15.4 µM]	0.4	-4	5	9%	11%
Cc1cc2c(NC(=O)Nc3ccc(C(C)(C)C)cc3)cccc2nn1	-3.4%	21%	0.4	-6	.	?	-21%
COc1ccc(S(=O)(=O)N2CCCCC2)cc1NC(=O)CCNC(=O)c1ccc(Cl)cc1	-1.5%	16%[15.4 µM]	.	.	-3	.	-3%
COc1ccc(C(=O)Nc2oc(-c3ccccc3)c(-c3ccccc3)c2C#N)cc1OC	-6.2%	7%	1.4	15	12	1%	4%
OCCNCc1cc(Br)ccc1OCc1ccc(Cl)cc1	-0.7%	-46%	8.0	23	1	?	8%
CCCCN1C(=S)NC[C@@H]1C(C)CC (stereo not given in full)	0.4%	-5%	0.8	11	4	6%	8%
CCCCCn1cnc2sc(CC)cc2c1=O	-0.6%	0%	7.3	-8	-7	4%	10%
O=C(NCc1ccc2c(c1)OCO2)C(=O)NCC1OCCN1S(=O)(=O)c1ccccc1 (stereo not given)	-2.8%	-4%[15.4 µM]	.	.	0	.	17%
CCOC(=O)C1(CCCc2ccccc2)CCN(C(=O)c2cc(C)nc(C)n2)CC1	.	-11%	-0.2	-13	7	4%	-1%
CC(C)(C)NC(=O)c1cccc(NC(=O)CSc2ccccc2)c1	0.0%	-41%[inhibitor]	-2.0	18	10	5%	-5%
CCC(CC)c1nnc(NC(=O)CS(=O)(=O)c2ccccc2)s1	.	23%	-1.5	5	1	50µM*	-7%
CCC(C)[C@@H]1NC(=O)N(CCCN2CCCC2=O)C1=O (stereo not given in full)	-5.2%	10%[15.4 µM]	-1.7	-1	5	12%	14%
Cc1ccc(NC(=O)CCC(=O)N2CCOCC2)nc1	0.5%	9%[15.4 µM]	.	-9	6	.	9%
CN(C)c1ccc(S(=O)(=O)c2ccc(Cl)cc2)cc1	?	-3%[15.4 µM]	4.9	-4	6	7%	4%
O=c1[nH]n(-c2cccc(Cl)c2)c2ncccc12	-1.9%	-35%[inhibitor]	-2.3	0	-19	32%[activator]	?
COc1ccc(/C=N/NC(=O)c2cc(C34CC5CC(CC(C5)C3)C4)[nH]n2)cc1OC	.	-5%[15.4 µM]	5.5	-5	7	-17%	-12%
CCn1c(=O)[nH]c2cc(C(=O)N3CCN(c4ccccc4)CC3)ccc2c1=O	-7.0%	-3%	1.5	-1	9	18%	4%
O=C(CNC(=O)C1COc2ccccc2O1)Nc1ccc(F)c(F)c1 (stereo not given)	-10%	-1%[15.4 µM]	.	.	5	.	-5%
O=C(NC1CCCCC1)c1c2c(nc3ccccc13)CCC2	.	21%	-1.3	-2	0	-8%	9%
COc1ccc(OC)c(S(=O)(=O)N2CCN3CCCC3C2)c1 (stereo not given)	-0.4%	-4%[15.4 µM]	-2.5	1	-7	7%	8%
Cc1ccc(C2(O)CN(c3ccccc3)C3=[N+]2CCS3)cc1 (stereo not given)	-3.5%	-41%[inhibitor]	-0.5	-2	-18	5%	-8%
Cc1cc(-c2ccc(S(=O)(=O)Nc3ccc(C#N)cc3)s2)on1	-1.8%	24%	.	6	-1	6%	-21%
COc1cc(SSc2cc(OC)cc([N+](=O)[O-])c2N)c(N)c([N+](=O)[O-])c1	1.0%	-8%	?	24	.	2.5µM*	-33%
Cc1c(CNC(=O)c2cnn3c2NC(c2ccc(Br)cc2)CC3C(F)(F)F)cnn1C (stereo not given)	0.7%	15%	3.3	?	-3	5%	-3%
COC(=O)C1C(c2ccccc2)C=CC(c2ccccc2)C1C(=O)O (stereo not given)	-0.9%	4%	1.2	20	15	13%	-22%
COc1cc(C(C)=O)ccc1OCC(=O)NCCCn1nc(C)cc1C	-29%	-1%[15.4 µM]	.	.	-16	.	6%
Cc1ccccc1NC(=O)CCC(=O)N/N=C/c1cc([N+](=O)[O-])ccc1O	19%	-13%	0.8	16	-88*	0%	-1%
COc1cc(/C=N/N2CCN(C3c4ccccc4-c4ccccc43)CC2)cc(OC)c1O	-1.2%	10%	2.9	-1	-15	40µM*	-13%
Cc1nnc(C)c2c(C)n(C(c3ccccc3)c3ccccc3)c(C)c12	-16%	27%	15	-5	-2	-17%	0%
COc1cccc(NC(=O)COc2ccc(S(=O)(=O)NC(C)C)cc2)c1	0.3%	-12%	1.9	-2	0	16%	-3%
O=C1OC[C@@H]2CCCN2C(=O)[C@H](CC(=O)N(CCO)Cc2ccccc2)C/C=C\CC[C@@H]1Cc1ccc(F)cc1	-0.4%	-41%[inhibitor]	.	.	0	.	-23%
CCOc1ccc(N2CC(C(=O)Nc3ccccc3N3CCCC3)CC2=O)cc1 (stereo not given)	.	-23%[15.4 µM]	.	1	0	20%	-13%
Cc1ccc(C(=O)Nc2nc(C)c(C(=O)Nc3ccc4c(c3)CCC4)s2)cc1	.	29%	4.1	-12	-2	25%	22%
Cc1nnc(SCC(=O)c2ccc(S(=O)(=O)N3CCOCC3)cc2)n1-c1ccccc1	-1.8%	-13%	1.8	-18	5	32µM*	7%
COc1ccc(-c2nnn(CC(=O)N(CC(=O)NCCC(C)C)c3ccccc3)n2)cc1OC	-3.0%	-35%[inhibitor]	-5.7	-14	4	-9%	-2%
COc1ccc(/C=C/CN2CCC(n3nccc3NC(=O)C3CCCC3)CC2)cc1	1.5%	?	-1.9	7	-2	4%	18%
O=C(O)C1CC(=O)N(C2CCCCCC2)C1 (stereo not given)	1.5%	30%	2.8	-1	-2	1%	9%[15.4 µM]
CCc1ccc(/C=C2\SC(=S)N(CCCC(=O)NCCCN3CCOCC3)C2=O)cc1	-0.3%	10%	.	.	-8	.	.
O=C(CSc1n[nH]c(-c2cccs2)n1)N1CCOCC1	.	3%	.	.	0	.	4%
COc1ccc(NC(=O)CSc2ccc(-c3sc(C)nc3C)nn2)cc1OC	1.1%	-7%[15.4 µM]	.	4	-13	19%	3%
Cc1sc(NC(=O)/C=C/c2ccco2)c(C(=O)OC(C)C)c1C	-1.2%	11%[15.4 µM]	29	-14	10	32µM*	13%
CC(C)[C@H](NC(=O)N1CC(=O)Nc2ccccc21)C(=O)N1CCC[C@H]1C(=O)O	-3.7%	.	-1.3	14	-17	17%	6%
O=C(c1ccc2ccccc2c1)N1CCN(c2ccc(C(F)(F)F)cn2)CC1	-2.6%	3%	-1.4	7	3	-11%	-4%
COc1ccc(OCC(=O)Nc2ccc(N3CCCCC3)cc2)cc1	0.6%	?	3.2	-14	3	-22%	4%
CCOc1cc(N2CCOCC2)c(OCC)cc1NC(=O)COC(=O)CCOc1ccc(C(C)(C)C)cc1	2.1%	0%[15.4 µM]	.	1	2	.	-7%
COc1ccc(NC(=O)CN(C)CC(=O)Nc2ccccc2SC)cc1	-11%	17%	-1.4	3	3	?	7%
O=C(O)c1cc2cc(Cl)cc(Cl)c2oc1=O	-5.5%	2%	5.5	7	-74*	-16%	5%

# Going on with the list.
Structure	ClpP mod	gsp ag	Menin MLL FP FL	TRPV1 potentiator	CtBP-E1A blk	Sfp PPTase inh	gsp antag
NC(=O)CNC(=O)c1ccc(Cl)cc1	-0.7%	-4%[15.4 µM]	0.1	2	-13	-3%	2%
O=S(=O)(/N=C(/Nc1nccs1)c1ccc(F)cc1)c1ccccc1	0.1%	1%[15.4 µM]	.	.	-1	.	-2%
COc1ccc(C)cc1Nc1n[n+](C)c(-c2c3ccccc3cc3ccccc23)s1	1.6%	-27%	?	-2	.	12%	6%
Cc1ccc2oc(C(=O)N(C)CCC(O)c3ccccc3)c(C)c2c1 (stereo not given)	1.3%	0%[15.4 µM]	-5.4	1	7	14%	-1%
Cc1ccc(C(=O)N2CCCC2)cc1S(=O)(=O)N1CCOCC1	0.7%	-7%	2.3	4	3	17%	1%
Cc1ccc(NC(=O)C2CCCO2)cc1[N+](=O)[O-] (stereo not given)	-1.3%	13%	0.1	-7	4	16%	25%
COc1ccc(C(=O)N2CC3(CC(c4cccc(NC(=O)COc5ccc(Cl)cc5)c4)=NO3)C[C@@H]2C(N)=O)cc1 (stereo not given in full)	-0.1%	-16%	2.9	7	-4	-13%	-21%
COc1cccc2cc(C(=O)Nc3cccnc3N3CCOCC3)c(=O)oc12	-4.8%	14%	4.5	16	7	25%	9%
CC(=O)Nc1ccc(NC(=O)CSc2ccc(-c3sc(C)nc3C)nn2)cc1	0.3%	7%[15.4 µM]	.	7	-8	5%	13%
O=C(CCn1ccc([N+](=O)[O-])n1)Nc1nccs1	.	8%[15.4 µM]	-4.5	10	.	8%	8%
